# Bioassay records deposited in PubChem BioAssay by Fisher Drug Discovery Resource Center.
# NPYLR7 agonist – mosquito NPYLR7 agonism; HEK293T NPYLR7/Galpha15, GCaMP6s calcium fluorescence; activation, % at 10 µM; hit rate 0.15% among 270,000; AID 1259423; in the data active means activation above about 40%;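 further: 0% = vehicle and 100% = reference agonist at the receptor; some compounds past the cut are filed as inactive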
# NPYLR7 agonist max-min – also measured in NPYLR7 agonist; calls as there; activation, %; measured here: Max-Min RFU normalised activation; some inactives read as strong as hits;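 span of the calcium signal over five minutes; 0% = vehicle and 100% = native peptide agonist; compound fluorescence can raise it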
# An asterisk follows results filed as active. A portion of the library; rates above refer to the full screens.
[1] CC(c1ccon1)N(C)C(=O)c1cc(NC(=O)c2ccccc2)cc2ncn(C3CCCC3)c12 (stereo not drawn)
[2] Cc1ccc2sc(N(Cc3ccccn3)C(=O)c3ccno3)nc2c1C
[3] CCc1nc2ccc(C(=O)N3CCN(C)CC3)cn2c1N(CC)C(C)=O
[4] CC1=CC[C@@H]2CN(Cc3ccc(CN(C)S(C)(=O)=O)o3)C[C@@H]2C1
[5] CCCc1c(C(=O)N2CCCCC2)cnn1-c1ccccc1
assay / compound | 1 | 2 | 3 | 4 | 5
NPYLR7 agonist | 20 | 7 | -3 | 7 | -4
NPYLR7 agonist max-min | 3 | -2 | -9 | 16 | 3

[6] Cc1ccc2c(CC(=O)NC3CCN(C(C)C)CC3)coc2c1C
[7] O=C1CSC(=S)N1Cc1ccc2c(c1)OCO2
[8] COC(=O)C(F)CN1CCCC(C(=O)N2CCC(C)CC2)C1 (stereo not drawn)
[9] COc1cccc(CNC(=O)CCC2CCCN(C(=O)c3ccc(CSC)o3)C2)c1 (stereo not drawn)
[10] COc1ccc(-c2cc(C(=O)O)c3[nH]c(C)nc3n2)cc1O
assay / compound | 6 | 7 | 8 | 9 | 10
NPYLR7 agonist | -1 | -2 | 10 | 3 | 1
NPYLR7 agonist max-min | -4 | -4 | 8 | 6 | -1

[11] COc1ccc(C(=O)NCc2cccnc2Oc2ccccc2)c(O)c1
[12] Cc1csc(SCc2cc(=O)c(OC(=O)c3ccc(C)c([N+](=O)[O-])c3)co2)n1
[13] Cc1cccc(Cn2cccc2CN(Cc2ccc(F)cc2)C2CCCCC2)c1
[14] COc1ccccc1Nc1nnc(SCC(=O)c2ccc(O)c(O)c2)s1
[15] CC(C)NC(=O)C1CCN(C2CCN(C/C=C/c3ccc(F)cc3)CC2)CC1
assay / compound | 11 | 12 | 13 | 14 | 15
NPYLR7 agonist | -1 | -2 | 25 | 2 | 2
NPYLR7 agonist max-min | -4 | -6 | 24 | -1 | -1

[16] O=C(CCN1C(=O)COc2ccccc21)NCCSCc1ccccc1
[17] Nc1cc(-c2ccc(C(=O)NCc3ccccc3)o2)c2cc[nH]c2n1
[18] Cc1ccc(C(=O)CSc2nnc(-c3cccs3)n2C2CC2)s1
[19] CCC(CCNC(=O)C12CC3CC(CC(C3)C1)C2)NC(=O)C12CC3CC(CC(C3)C1)C2 (stereo not drawn)
[20] C=CCNC(=S)N=C1N=C2C=CC(Br)=CN2Cc2ccccc21
assay / compound | 16 | 17 | 18 | 19 | 20
NPYLR7 agonist | 0 | 1 | 1 | 1 | -4
NPYLR7 agonist max-min | 1 | -5 | 2 | 0 | -2

[21] COc1ccccc1NC(=O)Cn1nc(C2CC2)c2cnn(-c3ccc(C)cc3C)c2c1=O
[22] COc1ccc(CC(=O)NCC(c2ccsc2)N2CCN(C)CC2)cc1 (stereo not drawn)
[23] COC(=O)c1ccc(CSc2n[nH]c(=O)c3cc(-c4cccs4)nn23)o1
[24] COc1ccc(-n2cnnc2CCN)cc1
[25] COC(=O)CCOc1ccc(S(=O)(=O)Nc2ccc(C)cc2F)cc1
assay / compound | 21 | 22 | 23 | 24 | 25
NPYLR7 agonist | -2 | 3 | -1 | 6 | 9
NPYLR7 agonist max-min | -1 | -5 | -3 | -3 | 3

[26] O=C(CCC1CCCC1)Nc1c(-c2ccc(F)c(F)c2)nc2ccccn12
[27] CN(C(=O)CC1C(=O)NCCN1CC(c1ccccc1)c1ccccc1)C1CCOCC1 (stereo not drawn)
[28] COc1ccc(OCc2nc(C(=O)N3[C@@H]4CC[C@H]3CNC(=O)C4)co2)cc1
[29] COCCn1cc(NC(=O)Nc2ccc(N(C)C)cc2)c2ccccc21
[30] COCCCNC(=O)[C@@H](C)N1Cc2ccc(Nc3cc(C)nn3C)nc2C1=O
assay / compound | 26 | 27 | 28 | 29 | 30
NPYLR7 agonist | -9 | 20 | 1 | 2 | 5
NPYLR7 agonist max-min | -2 | 16 | -2 | -3 | 0

[31] Cc1[nH]c2nc3c(c(=O)n(Cc4ccc(F)cc4)c(=O)n3C)n2c1C
[32] COc1ccc(CCN2CC(N)CC2=O)cc1 (stereo not drawn)
[33] O=C(c1ccc(Cl)cc1)N1CCN(C(c2ccccc2)c2ccc(F)cc2)CC1 (stereo not drawn)
[34] Cn1nc(NCCC(=O)N2CCCC2)c(=O)n(C)c1=O
[35] CCCc1c(-c2ccccc2)ncn1CCc1ccncc1
assay / compound | 31 | 32 | 33 | 34 | 35
NPYLR7 agonist | -1 | 5 | 22 | -2 | 0
NPYLR7 agonist max-min | 1 | 1 | 3 | -5 | -5

[36] Cc1cccn2c(CN[C@H]3CCCCNC3=O)c(C(=O)N3CCOCC3)nc12
[37] COc1ccccc1OCc1ccc(C(=O)NC(C)CCC(C)C)o1 (stereo not drawn)
[38] CSc1ccc(C(=O)NCC(=O)NCCCN(C)c2ccccc2)cc1
[39] O=C(CN1C(=O)COc2ccccc21)NNC(=O)c1csc(-c2ccc(Cl)cc2)n1
[40] Cc1ccc(-c2nn(CC(=O)Nc3ccc(C(N)=O)cc3)c(=O)c3nc(C)sc23)cc1
assay / compound | 36 | 37 | 38 | 39 | 40
NPYLR7 agonist | 3 | 2 | 2 | 4 | -7
NPYLR7 agonist max-min | 9 | -3 | -2 | 9 | -9

[41] Cc1noc(C)c1CSc1nnc(C)c(=O)[nH]1
[42] CCOC(=O)C1=c2/c(=C/c3ccncc3)c(N)c(C#N)n2C(=O)C(c2ccncc2)S1 (stereo not drawn)
[43] CS(=O)(=O)N1CCC(C(=O)Nc2nc(-c3cc4ccccc4o3)cs2)CC1
[44] O=c1c2cnc3nc(C(F)(F)F)nn3c2ccn1-c1ccc2c(c1)OCCO2
[45] CCOC(=O)CC1(NC(=O)[C@@H]2C[C@@H](N)CN2)CCCCC1
assay / compound | 41 | 42 | 43 | 44 | 45
NPYLR7 agonist | 16 | -1 | 0 | 5 | 4
NPYLR7 agonist max-min | 15 | 26 | -2 | 10 | 0

# Entries from the list above that have an NH in an aromatic ring (5):
[10] COc1ccc(-c2cc(C(=O)O)c3[nH]c(C)nc3n2)cc1O
[17] Nc1cc(-c2ccc(C(=O)NCc3ccccc3)o2)c2cc[nH]c2n1
[23] COC(=O)c1ccc(CSc2n[nH]c(=O)c3cc(-c4cccs4)nn23)o1
[31] Cc1[nH]c2nc3c(c(=O)n(Cc4ccc(F)cc4)c(=O)n3C)n2c1C
[41] Cc1noc(C)c1CSc1nnc(C)c(=O)[nH]1
assay / compound | 10 | 17 | 23 | 31 | 41
NPYLR7 agonist | 1 | 1 | -1 | -1 | 16
NPYLR7 agonist max-min | -1 | -5 | -3 | 1 | 15

# (list continues)
[46] Cc1ccc2nc(-c3ccc(N4C(=Nc5nc(C)cc(C)n5)NC(=O)CC4C(=O)O)cc3)sc2c1 (stereo not drawn)
[47] O=C(c1cn[nH]n1)N1CCc2[nH]nc(C3CCC3)c2C1
[48] S=C(NCCCn1cccn1)Nc1cc(Cl)ccc1Cl
[49] CN1CCN(C(=O)CC2Cn3ncc(-c4ccc(Cl)cc4)c3NC2=O)CC1 (stereo not drawn)
[50] Cc1ccc(S(=O)(=O)N2CCC(NC(=O)COc3cc(Cl)ccc3Cl)CC2)cc1
assay / compound | 46 | 47 | 48 | 49 | 50
NPYLR7 agonist | -7 | 1 | 4 | -16 | 14
NPYLR7 agonist max-min | -12 | -9 | 4 | -22 | 18

# Looked up by compound from the entries so far, 4 records:
[49] CN1CCN(C(=O)CC2Cn3ncc(-c4ccc(Cl)cc4)c3NC2=O)CC1 (stereo not drawn)
[46] Cc1ccc2nc(-c3ccc(N4C(=Nc5nc(C)cc(C)n5)NC(=O)CC4C(=O)O)cc3)sc2c1 (stereo not drawn)
[48] S=C(NCCCn1cccn1)Nc1cc(Cl)ccc1Cl
[50] Cc1ccc(S(=O)(=O)N2CCC(NC(=O)COc3cc(Cl)ccc3Cl)CC2)cc1
assay / compound | 49 | 46 | 48 | 50
NPYLR7 agonist | -16 | -7 | 4 | 14
NPYLR7 agonist max-min | -22 | -12 | 4 | 18

# (next part)
[51] COCCN(CC(=O)Nc1cc(C(C)(C)C)nn1-c1cccc(C)c1)C(=O)Nc1ccc(Cl)c(Cl)c1
[52] CC(C)(C)c1cc2nc(-c3ccccc3Cl)cc(C(=O)NCc3ccco3)n2n1
[53] O=C(Nc1nc(-c2ccccn2)cs1)c1cccc(N2CCCC2=O)c1
[54] COc1cc(/C=C2/SC(=S)N(CC(=O)O)C2=O)cc(OC)c1O
[55] Cc1ccc(NC(=O)CC(=O)N2CC[C@@H](O)C2)c(C)c1
assay / compound | 51 | 52 | 53 | 54 | 55
NPYLR7 agonist | -1 | 17 | 12 | 33 | 0
NPYLR7 agonist max-min | 1 | 15 | 18 | 24 | -7

[56] Cn1cc(CN2CCC(c3nc4ccccc4[nH]3)CC2)c(-c2ccc3c(c2)OCCO3)n1
[57] CCC(C(=O)N(Cc1ccco1)Cc1cc(N)ccc1N(C)C)c1ccccc1 (stereo not drawn)
[58] O=C1c2c(c3ccccc3n2Cc2ccccc2)CCN1c1ccccc1
[59] O=C(c1cc(-c2ccc(Cl)s2)nc2ccccc12)N1CCN(C(=O)C2CC2)CC1
[60] Cc1nc(N2CCC(N3CCCC3)CC2)c2cnn(C(C)(C)C)c2n1
assay / compound | 56 | 57 | 58 | 59 | 60
NPYLR7 agonist | 0 | -9 | 5 | 0 | 10
NPYLR7 agonist max-min | -3 | -3 | 4 | 20 | 7

[61] COC(=O)c1ccc(COC(CN2CCN(C(=O)c3cc(C)n(C)n3)CC2)c2cccc(OC)c2)cc1 (stereo not drawn)
[62] CCCCCc1ccc(C(=O)N(CCC)CC(=O)Nc2cc(C(C)(C)C)nn2-c2ccc(OC)cc2)cc1
[63] CCCCOC(=O)c1ccc(Nc2ncnc3c2nnn3CC)cc1
[64] CN(CC1(CO)CCC1)c1nccc(C2CCCC2)n1
[65] COc1cc2c(cc1OC)C(c1ccc(F)cc1)N(C(=O)CCC1CCCC1)CC2 (stereo not drawn)
assay / compound | 61 | 62 | 63 | 64 | 65
NPYLR7 agonist | 3 | 15 | 8 | -2 | -3
NPYLR7 agonist max-min | -1 | 16 | 13 | -1 | 7

[66] O=C(Nc1ccc2c(c1)OCO2)c1ccc2sc([C@H]3C[C@H](O)[C@@H](CO)O3)nc2c1
[67] COc1ccc(Br)cc1/C=N\Nc1nc(N2CCOCC2)nc(N2CCOCC2)n1
[68] Cc1nc(-c2cccnc2)ncc1C(=O)N(Cc1ccsc1)CC(C)C
[69] O=C1C(=O)N(CN2CCN(C(=O)C3CC3)CC2)c2cc(F)ccc21
[70] CCCCOC(=O)c1ccc(N=CC(C#N)c2nc(-c3cccs3)cs2)cc1 (stereo not drawn)
assay / compound | 66 | 67 | 68 | 69 | 70
NPYLR7 agonist | 2 | 0 | -5 | 1 | 6
NPYLR7 agonist max-min | -1 | -4 | -10 | -1 | 6

[71] CCCNC(=O)C1(C)CCCN(Cc2ccccc2N(C)C)C1 (stereo not drawn)
[72] CN(C)CCN1Cc2cccc(N)c2C1
[73] CN(C)CCN(Cc1c(-c2ccccc2)noc1N1CCCC1)C(=O)c1ccccc1F
[74] Fc1ccccc1C1c2cccn2CCCN1Cc1ccco1 (stereo not drawn)
[75] CCOC(=O)N1CCN(C(=O)C2CCC(=O)N2C(C)C)CC1 (stereo not drawn)
assay / compound | 71 | 72 | 73 | 74 | 75
NPYLR7 agonist | 0 | 2 | 1 | 8 | 12
NPYLR7 agonist max-min | -3 | 0 | 5 | 14 | 4

[76] CCSCCNc1nc(-c2cccnc2)nc2c1cnn2C
[77] COc1cc2ccccc2cc1C(=O)N(C)CC(=O)NC1CC1
[78] CCOC(=O)c1nn(-c2ccccc2)c(=O)c2c(NC(=O)c3cccc4ccccc34)scc12
[79] O=C(c1ccc(Cl)c(Cl)c1)N1CCCC(OCc2cccc(C(F)(F)F)c2)C1 (stereo not drawn)
[80] CCOc1ccc(NC(=O)c2ccc(-n3nc(C)c(CC)c3C)cc2)cc1
assay / compound | 76 | 77 | 78 | 79 | 80
NPYLR7 agonist | 20 | 10 | 3 | -4 | -9
NPYLR7 agonist max-min | 14 | 2 | 0 | 1 | -10

[81] COc1ccc(F)cc1CN1CCN(c2ncccc2C(=O)O)CC1
[82] N#Cc1cc2c(nc1SCC(=O)N1CCOCC1)CCCCC2
[83] COc1ccc(NC2CCCN(C(=O)CCc3n[nH]c(C)c3C)C2)cc1 (stereo not drawn)
[84] CC[n+]1cccc(-c2nc3ccccc3s2)c1
[85] O=S1(=O)CC(O)C(Nc2ccccc2O)C1 (stereo not drawn)
assay / compound | 81 | 82 | 83 | 84 | 85
NPYLR7 agonist | -5 | -3 | 8 | -1 | 4
NPYLR7 agonist max-min | -5 | -8 | 6 | 4 | 3

[86] COc1cccc(CC2(CO)CCCN(CCCC3CCCC3)C2)c1 (stereo not drawn)
[87] CC(=O)Nc1ccc(C(=O)N2CCCSc3ccccc32)cc1
[88] CC(OC1=CC(=O)CCC1)C(=O)c1ccccc1 (stereo not drawn)
[89] S=c1nc(C2CCCCC2)n(-c2ccccc2)[nH]1
[90] O=C(CCN1CCC(C(O)c2cccs2)CC1)N1CCc2ccccc2C1 (stereo not drawn)
[91] Cc1ccc(C(C)NC(=O)c2ccccc2S(=O)(=O)C(C)C)o1 (stereo not drawn)
[92] CC(C)(C)OC(=O)N[C@H]1CCCCC/C=C\[C@@H]2C[C@@]2(C(=O)NS(=O)(=O)C2CC2)NC(=O)[C@@H]2C[C@@H](OC(=O)N3Cc4cccc(F)c4C3)CN2C1=O
assay / compound | 86 | 87 | 88 | 89 | 90 | 91 | 92
NPYLR7 agonist | 17 | 6 | 6 | 8 | -6 | -17 | -5
NPYLR7 agonist max-min | 5 | 4 | 7 | 4 | -9 | -20 | -12
